HPGD inh = blocks human HPGD enzyme activity. purified HPGD, NADH fluorescence kinetic, PGE2 substrate. Potency, µM, without a hit: top-dose activity change, negative = inhibition, most hits filed as inhibitors. 150,000 tested, 4.3% active; active = well fitted inhibition curve with a large enough effect (not every such curve was filed as active); inconclusive = small, poorly fitted or top-dose-only effect, or another doubt; inactive = no such curve, though single readings can be large or run the other way;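 also: top concentration of the series not given in the record; plate controls included wells without enzyme; inactives centre near -10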
Target sequence (P15428 whole entry, looked up): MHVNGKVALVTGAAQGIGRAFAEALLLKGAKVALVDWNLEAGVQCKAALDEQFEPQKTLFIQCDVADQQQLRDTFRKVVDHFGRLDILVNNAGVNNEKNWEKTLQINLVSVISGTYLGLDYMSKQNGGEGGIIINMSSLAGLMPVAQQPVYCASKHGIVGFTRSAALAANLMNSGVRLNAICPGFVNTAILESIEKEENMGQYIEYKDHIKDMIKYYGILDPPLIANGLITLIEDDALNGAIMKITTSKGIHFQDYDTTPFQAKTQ
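NADH formation kinetics: reaction with 30 uM PGE2 and 1 mM NAD+ (final), 20 nM enzyme, Tris-HCl pH 8 with Tween 20, after 15 min compound preincubation at room temperature. Fluorescence change, last versus first of five reads.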
* marks the source's active call; other numbers are inactive results; & = joins results of further samples. % is scaled to controls: 0 for no effect and ±100 for the full control effect; potency is read from the fitted curve at half-maximal effect. An excerpt; the hit share may differ from the screen's.

What do the screens show for `CNc1sc(C(=O)c2ccc(F)cc2)c(N)c1-c1nc2ccccc2s1`?
HPGD inh: inconclusive

Results for O=C(Nc1nc2ccc(Cl)cc2s1)c1ccc(Br)o1 ?
HPGD inh: -11.3%

How did O=C(O)c1cc(Cl)ccc1NC(=O)C1CCCO1 (stereo unspecified) do in these assays?
HPGD inh: -23.0%

What do the screens show for `COc1ccc(Oc2ncc3nc(-c4ccc(OC)cc4)c(=O)n(Cc4cccs4)c3n2)cc1`?
HPGD inh: -4.9%

Results for Cc1cccc(-n2c(C)cc(/C=N/NC(=O)c3cccc([N+](=O)[O-])c3C)c2C)c1 ?
HPGD inh: -13.6%

What do the screens show for `COc1ccc(-n2ccc(-c3nn(-c4cccc(C(F)(F)F)c4)ccc3=O)n2)cc1`?
HPGD inh: -4.0%

What do the screens show for `CC(C)=C(NC(=O)c1ccccc1)C(=O)N1CCOCC1`?
HPGD inh: -0.2%

How did CCCCOc1ccc(C(=O)N/C(=C\c2cccc([N+](=O)[O-])c2)C(=O)OCc2ccco2)cc1 do in these assays?
HPGD inh: -7.2%

What do the screens show for `CC(C#N)Sc1nc2ccccc2c(=O)n1-c1ccccc1` (stereo unspecified)?
HPGD inh: -5.4%

Results for CC1CCCc2sc3nc(N4CCN(CCO)CC4)n4ncnc4c3c21 (stereo unspecified) ?
HPGD inh: -10.2%

Results for COC(=O)/C=C/C(=O)Nc1cccc(C(F)(F)F)c1 ?
HPGD inh: -6.3%

How did COc1cnn(C(C)(C)C)c(=O)c1Cl do in these assays?
HPGD inh: -10.2%

Overlap with the part before: 6 entries, followed by the next part.
What do the screens show for `CC(C)=C(NC(=O)c1ccccc1)C(=O)N1CCOCC1`?
HPGD inh: -0.2%

How did CCCCOc1ccc(C(=O)N/C(=C\c2cccc([N+](=O)[O-])c2)C(=O)OCc2ccco2)cc1 do in these assays?
HPGD inh: -7.2%

What do the screens show for `CC(C#N)Sc1nc2ccccc2c(=O)n1-c1ccccc1` (stereo unspecified)?
HPGD inh: -5.4%

Results for CC1CCCc2sc3nc(N4CCN(CCO)CC4)n4ncnc4c3c21 (stereo unspecified) ?
HPGD inh: -10.2%

Results for COC(=O)/C=C/C(=O)Nc1cccc(C(F)(F)F)c1 ?
HPGD inh: -6.3%

How did COc1cnn(C(C)(C)C)c(=O)c1Cl do in these assays?
HPGD inh: -10.2%

What do the screens show for `Cc1nc(SCC#N)c2c(C)c(C)sc2n1`?
HPGD inh: -15.3%

How did CCCCCn1c(Sc2ncccn2)nc2c1c(=O)[nH]c(=O)n2C do in these assays?
HPGD inh: -3.0%

What do the screens show for `CSc1nsc(SC)c1C(=O)Nc1ccc(C)cc1`?
HPGD inh: -5.4%

What do the screens show for `CCN(CC)C(=O)C(=O)N/N=C/c1cccc(Br)c1`?
HPGD inh: 4.9%

What do the screens show for `COc1cccc(OC)c1C(=O)Nc1cccc(C(C)=O)c1`?
HPGD inh: -8.3%

What do the screens show for `CC12CCC(C(=O)N3CCN(C(c4ccccc4)c4ccccc4)CC3)(OC1=O)C2(C)C` (stereo unspecified)?
HPGD inh: -6.1%

Results for CC(Cc1ccccc1)C(=O)NCc1ccccn1 (stereo unspecified) ?
HPGD inh: -8.7%&-15.6%

What do the screens show for `CN(C)CCNCc1ccccc1OC1CCCC1`?
HPGD inh: 1.1%

What do the screens show for `CC(=O)Cc1nsc(NC(=O)c2ccc(-c3ccccc3Cl)o2)n1`?
HPGD inh: inconclusive

Results for CCSc1nncn1/N=C/c1ccc(OC)c(OC)c1 ?
HPGD inh: -17.8%

Results for c1ccc(CCc2nc(-c3ccccc3)no2)cc1 ?
HPGD inh: -23.9%

How did CN(C)/C=N/c1sc2c(c1C#N)CCCCC2 do in these assays?
HPGD inh: -23.9%

How did COC(=O)c1cc(OC)c(OC)cc1NC(=O)Cc1ccccc1[N+](=O)[O-] do in these assays?
HPGD inh: -6.8%

What do the screens show for `NC(=O)N1CC(O)CC1C(=O)Nc1ccc(Cl)c(Cl)c1` (stereo unspecified)?
HPGD inh: -4.5%

Results for Cc1ccc(C(=O)Oc2cc(C)n(C)c(=O)c2)cc1 ?
HPGD inh: -7.4%

What do the screens show for `O=C(CCN1C(=O)c2ccccc2S1(=O)=O)Nc1ccc2c(c1)OCCO2`?
HPGD inh: -15.8%

How did Cc1ccc(/C=c2\sc3nc(-c4cccnc4)nn3c2=O)cc1 do in these assays?
HPGD inh: -12.2%

Results for CCCc1cc(=O)[nH]c(SCc2ccc(Cl)cc2)n1 ?
HPGD inh: 15.8µM*

How did CC(=O)Nc1cccc(OCC(=O)Nc2ccccc2)c1 do in these assays?
HPGD inh: -22.6%

What do the screens show for `CNC(=S)N/N=C/c1c(Cl)cccc1Cl`?
HPGD inh: -5.9%

What do the screens show for `Cc1ccc2nc(NNC(=O)c3ccc4c(c3)OCCO4)sc2c1`?
HPGD inh: 1.6%

How did COc1ccc(-c2ccnc(SCC(=O)Nc3ccccn3)n2)cc1 do in these assays?
HPGD inh: inconclusive

How did CC1(C)C(=O)Nc2ccccc2N1C(=O)COC(=O)C1CCCCC1 do in these assays?
HPGD inh: 2.3%

Results for COc1ccc(OC)c(Nc2nc(N)nc(CSc3nnc(N)s3)n2)c1 ?
HPGD inh: -15.6%

How did CCOc1ccc(-c2nnc(SCc3nc4ccccc4[nH]3)n2N)cc1 do in these assays?
HPGD inh: -16.5%

Results for CCOC(=O)c1ccc(N2C(=O)C3CC=C(C)CC3C2=O)cc1 (stereo unspecified) ?
HPGD inh: -13.8%

What do the screens show for `CCN(CC(=O)NC1CCS(=O)(=O)C1)S(=O)(=O)c1ccc2ccccc2c1` (stereo unspecified)?
HPGD inh: -1.1%

Results for COc1ccc2oc(=O)c(-c3nc(C)cs3)cc2c1 ?
HPGD inh: inconclusive

How did CC(=O)c1ccc(Nc2cc(C)nc3nc(C)nn23)cc1 do in these assays?
HPGD inh: -21.6%

How did CSc1ccc(/C=N/n2nnnc2N)cc1 do in these assays?
HPGD inh: inconclusive

What do the screens show for `O=C(N/N=C/c1ccc([N+](=O)[O-])o1)c1cc(-c2ccncc2)nc2ccccc12`?
HPGD inh: -9.4%

How did Cn1c(=O)c(C(=O)COC(=O)c2cc(C(F)(F)F)nc3c(C(F)(F)F)cccc23)c(N)n(CC2CC2)c1=O do in these assays?
HPGD inh: -2.6%&-21.4%

Results for COCCNC(=S)N/N=C/c1ccc(OCc2ccc(C(=O)OC)cc2)c(OC)c1 ?
HPGD inh: -21.8%

What do the screens show for `O=C(CSc1ccc2nnc(-c3cccnc3)n2n1)NCc1ccco1`?
HPGD inh: -29.4%

How did Fc1ccc(C(c2nnnn2Cc2ccccc2)N2CCSCC2)cc1 (stereo unspecified) do in these assays?
HPGD inh: -4.9%

Results for COc1cccc(-c2cc(C(=O)Nc3nc4ccccc4s3)c3ccccc3n2)c1 ?
HPGD inh: inconclusive

What do the screens show for `O=C(c1ccccc1)n1ccn(-c2ccccc2)c1=S`?
HPGD inh: -9.9%

How did COCCNC(=O)c1cccc(C)c1[N+](=O)[O-] do in these assays?
HPGD inh: inconclusive

Results for COc1ccc(Oc2ncc3nc(-c4cn(C)c5ccccc45)c(=O)n(CCC#N)c3n2)cc1 ?
HPGD inh: -4.9%

What do the screens show for `O=C(Nc1nc(-c2cccs2)cs1)c1ccc(Cl)cc1`?
HPGD inh: -11.8%

How did Cc1ccc(S(=O)(=O)NCCCn2ccnc2)cc1 do in these assays?
HPGD inh: -8.3%

Results for Cc1cc(C)cc(OCc2nnc(SCC(=O)OC3CCCCC3)o2)c1 ?
HPGD inh: -9.2%

Results for O=C(NCc1ccc2c(c1)OCO2)c1ccc(-c2ccc(Cl)cc2)o1 ?
HPGD inh: inconclusive

Results for CC(=O)Nc1cc2c(cc1C(=O)C(C)C)OCCO2 ?
HPGD inh: -23.0%

How did CCn1c(COc2ccccc2)nnc1SCc1ccc(C#N)cc1 do in these assays?
HPGD inh: -7.5%

Results for CCn1c2ccccc2n2c(=O)c(=O)n(CC(=O)Nc3ccc(C(C)C)cc3)nc12 ?
HPGD inh: inconclusive

What do the screens show for `CC(C)Nc1nc(SCC(=O)Nc2ccccc2)nc(N2CCOCC2)n1`?
HPGD inh: -0.9%

How did CC(C)(C)OC(=O)N1CC(O)CC1C(=O)OCC(=O)c1ccc(Cl)cc1 (stereo unspecified) do in these assays?
HPGD inh: -13.6%

Results for COc1ccc(OCc2cnc(Cl)s2)cc1 ?
HPGD inh: -27.6%

How did O=c1c(-c2ccccc2)nc2cncnc2n1Cc1ccccc1Cl do in these assays?
HPGD inh: -14.7%

Results for O=C(NCc1ccncc1)c1ccc(Br)o1 ?
HPGD inh: -10.6%

What do the screens show for `Cc1cc(C)n(/N=C/c2ccc(C(C)C)cc2)c(=O)c1C#N`?
HPGD inh: -31.1%

Results for CC1Cc2ccccc2N1S(=O)(=O)c1ccc2c(c1)n(C)c(=O)c(=O)n2C (stereo unspecified) ?
HPGD inh: -4.6%

How did CN(C)S(=O)(=O)Nc1ccc(Oc2ccccc2)cc1 do in these assays?
HPGD inh: 12.6µM*

What do the screens show for `COc1ccccc1C(=O)Nc1ccc(S(=O)(=O)N2CCCC2)cc1`?
HPGD inh: -11.6%

How did C=CCn1c(SC(C)C(=O)NCc2ccc3c(c2)OCO3)nc2scc(-c3ccccc3)c2c1=O (stereo unspecified) do in these assays?
HPGD inh: -9.5%

How did COc1ccc(C(=O)Nc2cc(Cl)cc(Cl)c2)c(OC)n1 do in these assays?
HPGD inh: -17.6%

How did COc1cc(C(=O)OCC(=O)NCc2ccco2)cc(OC)c1OC do in these assays?
HPGD inh: -7.9%

What do the screens show for `Oc1ccc(Nc2nc(-c3ccc(O)cc3)cs2)cc1`?
HPGD inh: inconclusive

Results for CC1=C(/C=N/Nc2ccc([N+](=O)[O-])cc2[N+](=O)[O-])C(C)(C)CCC1 ?
HPGD inh: -3.8%

How did COc1cc2c(cc1NC(=O)c1ccc(C)c([N+](=O)[O-])c1)oc1ccccc12 do in these assays?
HPGD inh: -3.3%

Results for Cc1occc1-c1nnc(SCC(=O)Nc2nccs2)n1Cc1ccco1 ?
HPGD inh: -13.0%

What do the screens show for `COC(=O)CSc1cc(SCC(=O)OC)c(C#N)c(SCC(=O)OC)c1`?
HPGD inh: inconclusive

How did COc1ccc(/C=C(/NC(=O)c2ccc(OC)c(OC)c2)C(=O)NCCc2c[nH]c3ccccc23)cc1 do in these assays?
HPGD inh: inconclusive

Results for CC(C)N(C)CCOC(=O)/C=C/c1ccccc1 ?
HPGD inh: 1.8%

What do the screens show for `COC1/C=C/OC2(C)Oc3c(C)c(O)c4c(O)c(c(/C=N/N5CCN(C)CC5)c(O)c4c3C2=O)NC(=O)/C(C)=C/C=C/C(C)C(O)C(C)C(O)C(C)C(OC(C)=O)C1C` (stereo unspecified)?
HPGD inh: -16.4%

Results for CC1(C)CC(=O)C2=C(C1)N(c1ccc(Cl)cc1)C(=O)C2(O)C(F)(F)F (stereo unspecified) ?
HPGD inh: -13.8%

What do the screens show for `CCC(=O)c1ccc(-c2ccccc2)cc1`?
HPGD inh: -21.4%

Results for O=C(Nc1ccc(Cl)cc1)OCCn1nnnc1C(c1ccccc1Cl)N1CCOCC1 (stereo unspecified) ?
HPGD inh: -14.5%

How did O=C(Nc1ccccc1)c1ccccc1NS(=O)(=O)c1ccc(Cl)s1 do in these assays?
HPGD inh: -4.6%

What do the screens show for `O=C(NCc1cccnc1)c1cccnc1-c1nc2ccccc2s1`?
HPGD inh: -18.5%

How did C=CCn1c(=S)[nH]c2sc3c(c2c1=O)CCC3 do in these assays?
HPGD inh: 31.6µM*

How did CCN1CCN(C(=O)CN(C)S(=O)(=O)c2ccc(OC)c(C)c2)CC1 do in these assays?
HPGD inh: 5.9%

What do the screens show for `COC(=O)c1cccnc1SCc1ccccc1`?
HPGD inh: -7.0%

What do the screens show for `COc1ccc(O[C@H]2C=C[C@@H](c3ccccc3)O[C@@H]2CO/N=C(\C)CCN2CCCCc3nc(C)c(C)cc32)cc1`?
HPGD inh: -21.1%

What do the screens show for `O=C(c1cc(C(F)(F)F)cc(C(F)(F)F)c1)N1CCC2(CCCN(Cc3ccccc3)C2)CC1`?
HPGD inh: -8.9%

What do the screens show for `COc1ccccc1OCc1nc(C#N)c(NCc2ccco2)o1`?
HPGD inh: -16.1%

What do the screens show for `Clc1ccc(SCc2cc(-c3ccc(Cl)cc3)on2)cc1`?
HPGD inh: inconclusive

How did c1ccc(CSc2ncn(-c3ccccc3)n2)cc1 do in these assays?
HPGD inh: 17.8µM*

How did COc1cc(C(=O)Nc2ccc(S(=O)(=O)NC(C)(C)C)cc2)cc(OC)c1OC do in these assays?
HPGD inh: -3.0%

Results for CCCCS(=O)CC(CS(=O)CCCC)OC(=O)c1ccc(C)cc1 (stereo unspecified) ?
HPGD inh: -2.3%

How did CC1=Nc2cccc3cccc(c23)N1C do in these assays?
HPGD inh: -24.8%

What do the screens show for `CCCNC(=O)CCNC(=O)c1ccc(C(C)(C)C)cc1`?
HPGD inh: -11.2%

Results for O=C(CCCCCN1C(=O)c2cccc3cccc(c23)C1=O)N1CCOCC1 ?
HPGD inh: inconclusive

How did Cc1ccc(/C=C/C(=O)N2CCc3ccccc32)o1 do in these assays?
HPGD inh: inconclusive

How did CCOC(=O)N1CCC(NC(=O)C2CCN(S(=O)(=O)c3cccc4cccnc34)CC2)CC1 do in these assays?
HPGD inh: -18.4%

What do the screens show for `CC(C)CN1CCC2(CC1)CCN(C(=O)c1cnccn1)CC2`?
HPGD inh: -4.0%

How did CCOc1ccc(-n2cc(C(=O)Nc3cccc(Cl)c3)c3cc(OC)c(OC)cc3c2=O)cc1 do in these assays?
HPGD inh: -22.9%

How did CNc1ccccc1C(=O)N1CCc2c([nH]c3ccccc23)C1=O do in these assays?
HPGD inh: inconclusive

What do the screens show for `CC1CCN(C(=O)CSc2nnc(-c3ccc(S(=O)(=O)N4CCOCC4)cc3)n2C)CC1`?
HPGD inh: inconclusive
